VACV Venus inh: vaccinia inhibition (Venus reporter). Potency, µM (series often up to 36.5 µM), for inactives: at the top dose activity change, negative = inhibition, hits mostly inhibitors. Vaccinia virus Venus reporter expression, fluorescence. actives 0.46% (n = 330,000). AID 720580; active means well fitted inhibition curve with a large enough effect; inconclusive means small, poorly fitted or top-dose-only effect; inactive means no such curve, though single readings can be large or run the other way; tested in A549 cells; further: nearly all actives have a fitted effect of over 30% in size; inactives centre near -10
VACV mCherry inh: inhibitors of vaccinia virus infection (mCherry reporter signal). AID 720579. Potency, µM (highest dose often 36.5 µM), without a hit: at the top dose activity change, negative = inhibition, usual class: inhibitors. actives 0.63% (n = 310,000). Vaccinia virus mCherry reporter infection, fluorescence; about a quarter of the inactives have no number; active = well fitted inhibition curve with a large enough effect; inconclusive = small, poorly fitted or top-dose-only effect; inactive = no such curve, though single readings can be large or run the other way; tested in A549 cells; further: nearly all actives have a fitted effect of over 35% in size; inactives centre near -10
Numbers without * were called inactive; i = inactive; ? = inconclusive; . = not tested or not shown; [ ] = dose if it differs, or a comment. On the % scale 0 is the no-effect control and ±100 the full control effect; potency means the concentration at half of the fitted maximal effect.

Compound | VACV Venus inh | VACV mCherry inh
CCOC(=O)N1CCN(c2c(NCCc3ccc(C)cc3)c(=O)c2=O)CC1 | -8% | -13%
CO/N=C/NC(=O)c1c(OC)ccnc1Oc1ccc(F)cc1 | -14% | -17%
CC(C)Oc1cccc(C(=O)C2CCCN(Cc3cnc(N4CCOCC4)s3)C2)c1 (configuration not stated) | -17% | -18%
CCOC(=O)c1ccc(Cn2cnc3ccccc3c2=O)cc1 | -9% | -18%
O=C(CN1C(=O)/C(=C\c2ccc(C(F)(F)F)cc2)Sc2ccccc21)NCc1ccco1 | ? | ?
Cc1ccc(Nc2nc(C)cs2)cc1 | -14% | -9%
COc1ccc(Br)c2c1-c1nc(NC(=O)c3cccc(C)c3)sc1C2 | -7% | -13%
O=C(O)c1cccc(N/N=C/c2sc(N3CCOCC3)nc2-c2ccccc2)c1 | -4% | -9%
CCNC(=O)C1CCCN(C(=O)c2ccc(C)c(F)c2)CC1 (configuration not stated) | -7% | i
NS(=O)(=O)c1ccc(CCNC(=S)Nc2ccc(S(N)(=O)=O)cc2)cc1 | -11% | -14%
Cc1cc(Nc2ccc(C)c(Cl)c2)n2nc(Cc3ccccc3)nc2n1 | -1% | -18%
Cc1cccc(C(=O)NCCNC(=O)c2ccco2)c1 | -2% | i
Cc1nc2cc(-c3cccc(F)c3)nn2c(N2CCN(C(=O)c3ccco3)CC2)c1C | -1% | .
COc1ccc(Br)cc1/C=N/NC(=O)CNC(=O)C1COc2ccccc2O1 (configuration not stated) | -11% | -3%
Cc1ccc(OCC(=O)NCc2cccnc2)cc1 | -2% | -5%

The listing continues.
Compound | VACV Venus inh | VACV mCherry inh
O=C(Nc1ccc2oc(-c3cccnc3)nc2c1)c1ccco1 | -22% | -14%[1.46 µM]
FC(F)(F)c1cc(-c2ccc(Cl)cc2)nc(NCc2cccnc2)n1 | ? | ?
CN(C)S(=O)(=O)c1ccc(N2CCCC2)c(C(=O)Nc2ccc(N3CCOCC3)cc2)c1 | -2% | i
COc1cc(NS(=O)(=O)c2ccc(NC(=O)COc3ccccc3C)cc2)nc(OC)n1 | 3% | -1%
N#Cc1cccnc1Nc1cccc(Cl)c1 | -11% | i
O=[N+]([O-])c1ccc(N2CCCC(C(F)(F)F)C2)c2ccncc12 (configuration not stated) | 7.9µM* | 2.8µM*
CCCC1(C(=O)OCC)NC(c2ccc(OC)cc2OC)C2C(=O)N(c3ccc4c(c3)OCCO4)C(=O)C21 (configuration not stated) | -6% | .
Cn1ccnc1SC(=O)N1c2ccccc2Sc2ccccc21 | -20% | -27%
CCOc1ccc(NC(=O)COc2ccc(C(=O)NCCc3ccccc3)cc2)cc1 | 2% | -13%
c1ccc(CN2CCC(CNc3ncnc4ccccc34)C2)cc1 (configuration not stated) | -5% | ?
CCCCn1c(SCC(=O)N2CCC(C(=O)OCC)CC2)nc2cc(S(N)(=O)=O)ccc21 | -1% | .
COCc1cc(C)nc(NC2CC(C)(C)NC(C)(C)C2)c1C#N | -11% | i
C[C@@H]1CC=C[C@H]2[C@H]1C(=O)N(Cc1ccccc1)[C@H]2c1ccc2ccccc2c1Br | ? | -27%
CCOC(=O)c1c(NC(=O)COc2ccc(Cl)cc2C)sc(C(C)=O)c1C | 0% | 6%
COc1cccc(C2C([N+](=O)[O-])=C(N)Oc3cc(C)oc(=O)c32)c1 (configuration not stated) | -5% | i

Further results.
Compound | VACV Venus inh | VACV mCherry inh
C#CCCCCCCCCCCCC(O)CC(O)CO (configuration not stated) | -9% | -19%
CCC1(C(=O)c2ccc(C)cc2)C2c3ccccc3OC(=O)C21C(=O)O (configuration not stated) | -8% | -5%
O=C(NCCCn1ccnc1)C(=O)NCC1OCCN1S(=O)(=O)c1ccc(Cl)cc1 (configuration not stated) | -8% | i
O=C(NC(=S)Nc1ccc(CN2CCOCC2)cc1)c1cccc([N+](=O)[O-])c1 | -6% | i
Cc1ccc(-c2cn3c(n2)sc2cc(C(=O)NCCC4=CCCCC4)ccc23)c(C)c1 | -9% | -5%
Cc1cc(C)cc(N2C(=O)N(Cc3cccc(F)c3)c3ccccc3S2(=O)=O)c1 | -8% | -16%
CC(C)(C)OCC1CO1 (configuration not stated) | -11% | -13%
CCC(Oc1ccc(F)cc1)C(=O)Nc1cc(-c2ccc(C)cc2)no1 (configuration not stated) | -13% | -13%
CCOC(=O)CC1CCCCN1C(=O)CCCn1nnnc1CN1CCC(C)CC1 (configuration not stated) | -9% | i
OC(COc1c(Cl)cc(Cl)cc1Cl)CN1CCCCC1 (configuration not stated) | -15% | -17%
C=CCOc1ccccc1CN1CCC(CO)(CCOc2ccccc2)CC1 | -14% | ?
COCCN1CCN(Cc2cn(C)nc2-c2cccc(Cl)c2)CC1 | -3% | -3%
CCc1ccc(C2CC(c3ccco3)=NN2S(C)(=O)=O)cc1 (configuration not stated) | ? | -23%[1.46 µM]
O=C(Nc1ccc2c(c1)C(=O)N(C1CCCCC1)C2=O)C1CCCO1 (configuration not stated) | -11% | -13%
Cc1cc(NCCCCCCCNc2cc(C)nc3cc([N+](=O)[O-])ccc23)c2ccc([N+](=O)[O-])cc2n1 | 10µM* | ?

Entries of single compounds, quoted from the list. Order of values: VACV Venus inh, VACV mCherry inh
Entry for `CC(C)(C)OCC1CO1` (configuration not stated) = -11%, -13%
Entry for `CCc1ccc(C2CC(c3ccco3)=NN2S(C)(=O)=O)cc1` (configuration not stated) = ?, -23%[1.46 µM]
Entry for `C=CCOc1ccccc1CN1CCC(CO)(CCOc2ccccc2)CC1` = -14%, ?
Entry for `Cc1ccc(-c2cn3c(n2)sc2cc(C(=O)NCCC4=CCCCC4)ccc23)c(C)c1` = -9%, -5%
Entry for `OC(COc1c(Cl)cc(Cl)cc1Cl)CN1CCCCC1` (configuration not stated) = -15%, -17%

Following part:
Compound | VACV Venus inh | VACV mCherry inh
COc1ccc(C(=O)c2c(N)c(-c3nc(-c4ccccc4)cs3)c3ccccn23)cc1 | -8% | -20%
Cc1ccc(CNC(=O)C(=O)NCCC2CCCCN2S(=O)(=O)c2cccs2)cc1 (configuration not stated) | -21% | -23%
O=C1CC[C@@]23CCCN2C(=O)CCCC3C1 (some centres not stated) | 0% | i
CCOC(=O)c1ccc(CN(Cc2ccc(Br)cc2)S(=O)(=O)c2cccc(Cl)c2C)cc1 | 6% | 2%
COC(=O)C1CC2=C(CC(C)(C)CC2=O)N(c2ccccc2)C1=O (configuration not stated) | -8% | i
O=C1c2ccccc2S(=O)(=O)c2cc(N3CCC(C(=O)N4CCCCC4)CC3)ccc21 | -28% | -5%
CO[C@H]1[C@H](NC(=O)c2ccco2)c2ccccc2C12CCN(Cc1cc(Cl)ccc1O)CC2 | -24% | ?
COc1ccccc1OCc1ccc(C(=O)N2N=C(C(F)F)CC2(O)C(F)F)o1 (configuration not stated) | -9% | -19%
COc1ccc(-c2nn(C)c3sc(C(=O)Nc4cc(OC)c(OC)c(OC)c4)cc23)cc1OC | -3%[7.34 µM] | -11%[7.34 µM]
O=S(=O)(Nc1ccc(O)c(Sc2nc3ccccc3s2)c1)c1cc(Cl)ccc1Cl | 7% | -17%
Cc1cc(Br)ccc1NC(=O)c1cn(C2CCCC2)c(=O)c2c1c1ccccc1n2C | -6% | -8%
Cc1nc2ccccc2n1CC(=O)c1ccc(O)c(O)c1 | -13% | -30%
CN1CCN(C(=O)c2ccc3c(c2)N(Cc2ccccc2F)C(=O)c2ccccc2S3=O)CC1 (configuration not stated) | -11% | i
O=C(Nc1ccccc1)c1ccc(Br)c(S(=O)(=O)Nc2ccccn2)c1 | -12% | -19%
Cc1ccc(NC(=O)c2cc(-c3cccs3)on2)cc1 | -12% | -9%

Rewritten field by field: entries from further up.
Cc1ccc(CNC(=O)C(=O)NCCC2CCCCN2S(=O)(=O)c2cccs2)cc1 (configuration not stated)
- VACV Venus inh: -21%
- VACV mCherry inh: -23%
O=C1CC[C@@]23CCCN2C(=O)CCCC3C1 (some centres not stated)
- VACV Venus inh: 0%
- VACV mCherry inh: i
CCOC(=O)c1ccc(CN(Cc2ccc(Br)cc2)S(=O)(=O)c2cccc(Cl)c2C)cc1
- VACV Venus inh: 6%
- VACV mCherry inh: 2%
COC(=O)C1CC2=C(CC(C)(C)CC2=O)N(c2ccccc2)C1=O (configuration not stated)
- VACV Venus inh: -8%
- VACV mCherry inh: i

New compounds follow:
Compound | VACV Venus inh | VACV mCherry inh
CCn1c(SCC(=O)c2cccs2)nnc1-c1ccco1 | -4% | -10%
O=C(O)/C=C/C(O)c1ccc(Cl)cc1 (configuration not stated) | -12% | -18%
COCCCNC(=S)NC1CC2CCCC(C1)N2Cc1ccco1 (configuration not stated) | -3% | -4%
Cc1c(C(=O)N2CCCCCC2)c(S(=O)(=O)Nc2ccc(OC(F)(F)F)cc2)c(C)n1C | -2% | -8%
COc1cc(Cn2c3ccc(NC(=S)NCc4ccc(C)cc4)cc3c(=O)n2C)ccc1F | -6% | -25%
CCC(C(=O)NC1CCCC1)N(Cc1ccco1)C(=O)CNS(=O)(=O)c1ccccc1 (configuration not stated) | -12% | -17%
C=CC[C@@H](CC(=O)N[C@H](CO)Cc1ccccc1)C(=O)N[C@H](COC(=O)[C@@H](CC=C)Cc1ccc(F)cc1)Cc1ccccc1 | -25% | i
COc1cccc2cc(-c3nc(-c4ccc(Cl)cc4)cs3)c(=O)oc12 | -16% | -15%
COC(=O)c1ccccc1NC(=O)c1ccc2c(c1)CCN2S(C)(=O)=O | -9% | -17%
COc1nnc(OC)c2ccccc12 | -3% | -15%
O=C(C1CCC(=O)N1Cc1cccnc1)N1CCN(c2ccc(F)cc2)CC1 (configuration not stated) | -4% | -13%
CS(=O)(=O)N(CC(N)=O)c1cccc(Br)c1 | -12% | .
COc1ccc(-c2oc3c4c2C(=O)OCCOC4CCC3)cc1 (configuration not stated) | 6% | 7%
CCC(=O)Nc1ccc(NC(=S)NC(=O)c2oc3ccccc3c2C)cc1 | -13% | i
CCCS(=O)(=O)NCCc1cc2c(OC)ccc(OC)c2[nH]c1=O | -12% | -19%

Next part:
Compound | VACV Venus inh | VACV mCherry inh
CCN(CC)S(=O)(=O)c1cccc(-c2nnc(SCC(=O)c3cc(C)n(C)c3C)o2)c1 | -7% | i
COc1cccc(OC)c1OCCCCN1CCCC1 | -9% | .
CCOc1c(Cl)cc(CNc2ccc(S(N)(=O)=O)cc2)cc1OC | -29% | ?
NC(=O)CC(NC(=O)Cc1ccc(Cl)cc1)c1ccc(NC2CC3CCC2C3)c([N+](=O)[O-])c1 (configuration not stated) | -27% | i
COC(C[C@H]1O[C@H]1[C@H](O)[C@H](C)OCc1ccccc1)OC | -10% | -18%
O=C(Nc1nc2ccccc2n1CCN1CCCCC1)c1ccco1 | 6% | .
CCN1CCN(c2ccc(NC(=O)c3ccc4c(c3)[nH]c(=O)n4Cc3ccc(OC)cc3)cc2)CC1 | ? | ?
CC1CN(CC(=O)c2ccccc2Cl)CC(C)O1 (configuration not stated) | -5% | i
FC(F)(F)c1cnc(N2CCN(C(=S)NCc3ccccc3)CC2)c(Cl)c1 | -1% | -12%
Cc1cc(C)c(C(=O)NC2CC(C)(C)Cc3c2cnn3-c2cccc(F)c2)[nH]1 (configuration not stated) | -21% | -18%
CCOC(=O)c1cnc(SCC(=O)Nc2cccc(OC)c2)nc1N | -19% | -6%
COc1ccc(CC(=O)OCC(=O)Nc2c(C)n(C)n(-c3ccccc3)c2=O)cc1 | -9% | .
COc1ccccc1-c1nnc(NC(=O)CCS(=O)(=O)c2ccccc2)o1 | ? | 8.9µM*
NC(=O)CSc1nnc(-c2ccco2)n1-c1ccc(F)cc1 | -11% | i
Cn1ccc(C(=O)Oc2ccc(C(=O)Nc3ccc(F)cc3F)cc2)n1 | -4% | i

Remaining list, next part
Compound | VACV Venus inh | VACV mCherry inh
CCn1c(SCC(=O)NC2CCCCC2)nnc1-c1cccnc1 | -15% | i
Cc1ccc(C(=O)c2oc3ccccc3c2NC(=O)c2cc(-c3ccc(Cl)cc3)on2)cc1 | -2% | -11%
O=C(CSc1nc2c(sc3ccccc32)c(=O)n1Cc1ccco1)NCC1CCCO1 (configuration not stated) | -14% | -16%
C=CCn1c(=N)c(C(=O)NCCCOC)cc2c(=O)n3cc(C)ccc3nc21 | -3% | -10%
CC(=O)c1nnn(-c2ccc(C)cc2Cl)c1C | -10% | -14%
CC(=O)N(C)c1ccc(NC(=O)Cc2cccc3ccccc23)cc1 | 2%[7.34 µM] | i[7.34 µM]
O=C(CN1C(=O)c2ccccc2C1=O)NNC1=NS(=O)(=O)c2ccccc21 | 0% | i
Cc1ccccc1C(=O)NC1CC(C)(C)NC(C)(C)C1 | -9% | -19%
Cc1cccc(C)c1-n1c(C)nn(CC2CC2)c1=O | -5% | -4%
COc1cccc2oc(CCc3ccccc3)cc(=O)c12 | -13% | i
c1ccc2c(-n3cccn3)cccc2c1 | -10% | .
O=C(COc1cccc(-n2cnnn2)c1)NC1CCCCC1 | -4% | i
N#Cc1ccc(CSc2ccccn2)c(Cl)c1 | -15% | -17%
CNC(=O)c1c(NC(=O)CCS(=O)(=O)c2ccccc2)sc2c1CCN(C(=O)OC)C2 | ? | -14%
COc1ccc(C(=O)CN2CCN(CCN3C(=O)c4cccc5cccc(c45)C3=O)CC2)cc1 | 11% | -7%

Compound activity: PubChem, National Center for Advancing Translational Sciences (NCATS)
